Assay outcomes (PubChem)
ALR inh: inhibitors of human ALR sulfhydryl oxidase, primary screen, biochemical, H2O2 detection, HRP-luminol luminescence, single point; actives 3.8% (n = 290,000); purified ALR, DTT oxidation; inhibition, % (concentration not given with the values);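 active = mean and each replicate at 75% or more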;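 note: stock transfer was 7.5 nL into about 7.5 µL; 0% = neutral wells and 100% = wells with inactivated enzyme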
Target sequence (P55789 whole entry, looked up): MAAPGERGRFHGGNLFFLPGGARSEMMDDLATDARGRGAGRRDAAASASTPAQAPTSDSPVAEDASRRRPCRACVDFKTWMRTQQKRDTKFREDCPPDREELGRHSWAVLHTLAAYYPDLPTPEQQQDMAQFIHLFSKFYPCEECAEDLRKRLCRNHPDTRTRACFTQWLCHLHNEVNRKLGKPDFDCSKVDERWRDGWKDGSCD
rRNA inh HTS: reduced GFP signal of wild-type E. coli, primary screen, bacterial rRNA inhibitor project, GFP/RFP fluorescence, OD600, single point; E. coli WT GFP vs humanized-ribosome RFP mutants, 24 h; stronger effect = lower value; DMSO median 0, no signal -100; GFP signal change (wild-type ribosome), % (test concentration not listed); actives 1.6% (n = 350,000); AID 720706, 2013;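 active = significant combined selectivity score with lowered wild-type GFP, culture density cut under 30%, mutant RFP and density less affected; inactive = any of these conditions unmet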; note: one replicate is shown; some compounds called inactive have numbers as strong as hits
UCH37 DUB inh: inhibitors of human UCH37 deubiquitinase, primary screen, biochemical, Ub-AMC cleavage, fluorescence; actives 0.33% (n = 330,000); inhibition, % (concentration not given with the values); Ubiquitin carboxyl-terminal hydrolase isozyme L5 (Homo sapiens), Q9Y5K5; purified proteasome/UCH37;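 active = mean of two replicates above 20%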;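 note: 0% = compound-free wells with enzyme and 100% = wells lacking proteasome; stock transfer was 100 nL into about 20 µL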
Target sequence (Q9Y5K5 whole entry, looked up): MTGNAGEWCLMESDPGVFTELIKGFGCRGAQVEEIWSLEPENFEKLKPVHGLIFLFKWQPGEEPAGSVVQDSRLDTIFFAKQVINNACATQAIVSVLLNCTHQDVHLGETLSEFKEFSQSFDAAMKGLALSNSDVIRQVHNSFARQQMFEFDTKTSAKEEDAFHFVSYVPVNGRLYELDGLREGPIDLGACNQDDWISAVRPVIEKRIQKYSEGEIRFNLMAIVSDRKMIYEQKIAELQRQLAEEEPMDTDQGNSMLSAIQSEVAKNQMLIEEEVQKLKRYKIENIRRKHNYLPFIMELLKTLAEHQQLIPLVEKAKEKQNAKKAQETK
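system = Proteasome-associated human UCH37 deubiquitinase | amount = 0.15 nM proteasome as dispensed | medium = pH 7.4 Tris-HCl (50 mM) with ovalbumin, ATP-MgCl2, DTT | incubation = 30 min preincubation with enzyme, 25 min cleavage at room temperature | detection = AMC fluorescence 355/460 nm | read-out basis = percent inhibition | controls = no-proteasome and no-compound wells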
FGF22 binding: binders of human FGF22 protein, primary screen, FGF22 synaptogenesis inhibitor project, biophysical, thermal shift, single point; Fibroblast growth factor 22 (Homo sapiens), Q9HCT0; recombinant FGF22 thermal shift, SYPRO orange fluorescence; percent of sucrose octasulfate shift, DMSO zero; actives 1.5% (n = 340,000); calls only at 9.99 µM;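 active = melting point raised past a set limit in the mean and every replicate; three in four hits are not shown here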
HNF4A DNA FP: change in binding of human HNF4A to DNA, primary screen, biochemical, fluorescence polarization, FITC-DNA. Hepatocyte nuclear factor 4-alpha (Homo sapiens), P41235. 1 h. activity change, % at 10 µM. actives 0.3% (n = 360,000). AID 1224865, 2016; in the data active = activity change above about 30%, passing the limit was not always enough;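 note: controls were the assay level and a saturating level of protein; the project sought stronger binding though the title names inhibitors; some compounds called inactive have numbers as strong as hits; positive values seem to mean higher polarization but the record does not say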
B2AR ag: beta2AR agonists driving receptor internalization, primary screen, cell-based, FAP fluorogen, flow cytometry | Beta-2 adrenergic receptor (Homo sapiens), P07550 | AID 504454, 2011 | response, % (concentration not given with the values) | actives 0.43% (n = 340,000) | Am2.2-beta2AR cells; reference of the scale not given here;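 active = response above a set limit, near 3 SD of response in nonfluorescent compounds, cut at about 42% in these data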;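 note: stock transfer was 100 nL into about 11 µL; a reference agonist was the positive control; negative values mostly stem from fluorescent compounds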
Target sequence (P07550 whole entry, looked up): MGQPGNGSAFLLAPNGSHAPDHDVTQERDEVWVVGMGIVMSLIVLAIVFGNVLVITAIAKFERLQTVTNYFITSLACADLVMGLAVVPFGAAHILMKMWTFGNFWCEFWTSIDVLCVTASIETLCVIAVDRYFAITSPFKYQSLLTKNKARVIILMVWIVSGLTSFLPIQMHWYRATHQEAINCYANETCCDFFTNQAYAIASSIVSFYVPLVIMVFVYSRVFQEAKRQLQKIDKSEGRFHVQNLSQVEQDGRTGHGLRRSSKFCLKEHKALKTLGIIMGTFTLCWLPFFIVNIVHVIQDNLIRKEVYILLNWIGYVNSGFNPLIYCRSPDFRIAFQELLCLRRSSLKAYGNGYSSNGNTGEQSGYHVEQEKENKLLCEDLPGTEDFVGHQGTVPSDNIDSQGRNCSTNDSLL
Ecoli growth: E. coli growth inhibition, primary screen, OD600; actives 0.21% (n = 330,000); Escherichia coli growth, 23 h; stronger effect = lower value; OD600 absorbance (test concentration not listed); AID 1053175, 2014;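 active = OD600 absorbance below the run mean of sample wells minus 3.6 SD, in any replicate, cut at about 0.56 in these data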;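 note: stock transfer was 300 nL into about 60 µL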
rRNA inh HTS OD600: recorded beside rRNA inh HTS, whose call it bears; OD600 change, %; measured here: OD600 growth;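 optical density of the mix in the first replicate; 0 = DMSO median and -100 = no signal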
rRNA inh HTS RFP: recorded beside rRNA inh HTS, whose call it bears; RFP signal change, %; measured here: RFP humanized mutant strains;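 first replicate; 0 = DMSO median and -100 = no signal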
* hit, by the source's call. These rows are one share of the data. The share of hits here may be higher or lower than overall.

For O=C(OCC(=O)N1CCc2ccccc2C1)c1ccc(OC(F)F)cc1 the results were ALR inh 10.2, UCH37 DUB inh 2.7, FGF22 binding inactive, HNF4A DNA FP -0.7, B2AR ag 8.3 and Ecoli growth 0.607.
Screening Cc1cnc(C(=O)OC(C)C(=O)NCc2ccccc2)cn1 (stereo not drawn) returned ALR inh -1.4, rRNA inh HTS 17.2, UCH37 DUB inh -0.6, FGF22 binding inactive, HNF4A DNA FP 2.1, B2AR ag 1.9, Ecoli growth 0.694, rRNA inh HTS OD600 22.1 and rRNA inh HTS RFP 3.5.
CNc1cncc(-c2ccccc2NC(C)=O)n1 was read as rRNA inh HTS -1.5, FGF22 binding inactive, HNF4A DNA FP 3.7, rRNA inh HTS OD600 4.9 and rRNA inh HTS RFP -4.1.
For Cc1csc(SCC(=O)Nc2ccc(F)cc2Cl)n1 the results were ALR inh -8.1, rRNA inh HTS -1.3, UCH37 DUB inh 0.2, FGF22 binding inactive, HNF4A DNA FP -0.7, B2AR ag 11.2, Ecoli growth 0.645, rRNA inh HTS OD600 -12.6 and rRNA inh HTS RFP -1.4.
Screening CCOc1cc2[nH]c(=S)n(C3CCN(Cc4ccccc4)CC3)c(=O)c2cc1OCC returned ALR inh -2.1, rRNA inh HTS 5.9, UCH37 DUB inh 3.2, FGF22 binding inactive, HNF4A DNA FP -1.3, B2AR ag -5.1, Ecoli growth 0.676, rRNA inh HTS OD600 -4.1 and rRNA inh HTS RFP 4.2.
Screening COC(=O)CSc1nc2c(c(=O)[nH]c(=O)n2C)n1CCC(C)C returned ALR inh 0.1, UCH37 DUB inh 1.6, HNF4A DNA FP 1.0, B2AR ag 12.8 and Ecoli growth 0.713.
COCC(=O)N1CCC(Oc2ccc(C(=O)N(C)CCCC3CCCC3)cc2)CC1 was read as ALR inh -52.1, rRNA inh HTS -2.1, UCH37 DUB inh 0.6, FGF22 binding inactive, HNF4A DNA FP 0.0, B2AR ag 0.3, Ecoli growth 0.674, rRNA inh HTS OD600 -29.4 and rRNA inh HTS RFP -3.6.
For CC1CCN(C(=O)COC(=O)c2cc(S(=O)(=O)N3CCOCC3)ccc2Cl)CC1 the results were rRNA inh HTS -4.3, UCH37 DUB inh 0.2, FGF22 binding inactive, HNF4A DNA FP -2.8, B2AR ag 6.2, Ecoli growth 0.659, rRNA inh HTS OD600 -7.1 and rRNA inh HTS RFP -0.2.
Screening COc1ccc(NC(=O)NC(C)c2ccc3c(c2)OCO3)cc1OC (stereo not drawn) returned ALR inh -51.7, rRNA inh HTS 1.9, UCH37 DUB inh 0.8, FGF22 binding inactive, HNF4A DNA FP -5.0, B2AR ag -5.2, Ecoli growth 0.712, rRNA inh HTS OD600 12.9 and rRNA inh HTS RFP -1.6.
COC(=O)C1CCCN1C(=O)c1cccs1 (stereo not drawn) was read as ALR inh 0.3, UCH37 DUB inh 3.7, HNF4A DNA FP -3.0, B2AR ag 1.3 and Ecoli growth 0.674.
CC(C)c1nnc(NC(=O)c2ccc3ccccc3c2)s1 was read as ALR inh -11.0, rRNA inh HTS 5.9, UCH37 DUB inh 0.1, FGF22 binding inactive, HNF4A DNA FP 0.3, B2AR ag 0.3, Ecoli growth 0.696, rRNA inh HTS OD600 11.0 and rRNA inh HTS RFP -1.2.
For CC(C)(C)OC(=O)NCCc1nnc(SCC(N)=O)o1 the results were ALR inh -4.1, UCH37 DUB inh 4.2, HNF4A DNA FP -0.6, B2AR ag 0.1 and Ecoli growth 0.715.
`CC(=O)c1ccccc1NC(=O)COC(=O)c1cc2ccccc2[nH]1` gave ALR inh -3.9, rRNA inh HTS 17.8, UCH37 DUB inh 1.6, FGF22 binding inactive, HNF4A DNA FP 2.7, B2AR ag 5.4, Ecoli growth 0.656, rRNA inh HTS OD600 10.9 and rRNA inh HTS RFP 2.1.
`O=C(Nc1ccccc1N1CCN(C(=O)c2ccc(Cl)cc2)CC1)c1cccnc1` gave ALR inh -13.9, UCH37 DUB inh 3.4, HNF4A DNA FP 5.3, B2AR ag 5.8 and Ecoli growth 0.674.
C=C1N(C)c2cc([N+](=O)[O-])c(N)cc2C1(C)C was read as ALR inh 15.0, rRNA inh HTS -42.7, UCH37 DUB inh 9.4, HNF4A DNA FP 0.8, B2AR ag 5.8, Ecoli growth 0.731, rRNA inh HTS OD600 28.8 and rRNA inh HTS RFP 61.5.
O=C(CC1C(=O)NCCN1Cc1cccc(F)c1)NCCCOc1cccnc1 (stereo not drawn) was read as ALR inh -5.0, rRNA inh HTS 3.8, UCH37 DUB inh -3.1, FGF22 binding inactive, HNF4A DNA FP 3.5, B2AR ag -4.7, Ecoli growth 0.65, rRNA inh HTS OD600 10.0 and rRNA inh HTS RFP 0.1.
Screening CCCCCCNC(=O)Cc1nc2nc(C)cc(C)n2n1 returned ALR inh -7.2, UCH37 DUB inh 4.9, HNF4A DNA FP -0.3, B2AR ag -4.8 and Ecoli growth 0.75.
`CC(C)(C)C(=O)OCc1nc(-c2ccc3c(c2)OCCO3)cs1` gave rRNA inh HTS 4.1, UCH37 DUB inh 1.6, FGF22 binding inactive, HNF4A DNA FP 2.7, B2AR ag 4.8, Ecoli growth 0.676, rRNA inh HTS OD600 4.2 and rRNA inh HTS RFP -2.5.
For COC(=O)c1cc(=O)n(Cc2cccs2)c(=Nc2ccccc2)s1 the results were rRNA inh HTS -13.6, UCH37 DUB inh 4.3, FGF22 binding inactive, HNF4A DNA FP 2.7, B2AR ag 21.4, Ecoli growth 0.718, rRNA inh HTS OD600 -8.6 and rRNA inh HTS RFP -1.0.
For CCCN(CC(=O)Nc1ccccc1C)C(=O)c1ccc(C2SCCS2)cc1 the results were ALR inh -9.7, rRNA inh HTS 5.6, UCH37 DUB inh 1.1, FGF22 binding inactive, HNF4A DNA FP -1.6, B2AR ag 9.1, Ecoli growth 0.628, rRNA inh HTS OD600 3.0 and rRNA inh HTS RFP -0.6.
For CCOC(=O)C1=C(C)N(Cc2ccccc2)C(=O)NC1c1ccc(OC)cc1 (stereo not drawn) the results were ALR inh -12.5, UCH37 DUB inh 5.2, HNF4A DNA FP 2.4, B2AR ag 10.1 and Ecoli growth 0.704.
Screening O=c1c2nccnc2[nH]c(=S)n1Cc1ccccc1Cl returned ALR inh 7.3, rRNA inh HTS -18.8, UCH37 DUB inh 6.1, FGF22 binding inactive, HNF4A DNA FP -2.6, B2AR ag -1.1, Ecoli growth 0.641, rRNA inh HTS OD600 -5.7 and rRNA inh HTS RFP -6.0.
O=C(CCC(=O)Nc1ccc(Cl)cc1Cl)NNC(=O)[C@@H]1CCCC[C@@H]1C(=O)O was read as ALR inh -15.1, UCH37 DUB inh 4.8, HNF4A DNA FP 2.0, B2AR ag -5.9 and Ecoli growth 0.707.
For Cc1ccc(-n2ncc3c(NCCCN4CCCC4=O)ncnc32)c(C)c1 the results were ALR inh -4.2, UCH37 DUB inh 4.0, FGF22 binding inactive, HNF4A DNA FP 0.7, B2AR ag 0.9 and Ecoli growth 0.703.

Entries above containing a tert-butyl group:
For CC(C)(C)OC(=O)NCCc1nnc(SCC(N)=O)o1 the results were ALR inh -4.1, UCH37 DUB inh 4.2, HNF4A DNA FP -0.6, B2AR ag 0.1 and Ecoli growth 0.715.
`CC(C)(C)C(=O)OCc1nc(-c2ccc3c(c2)OCCO3)cs1` gave rRNA inh HTS 4.1, UCH37 DUB inh 1.6, FGF22 binding inactive, HNF4A DNA FP 2.7, B2AR ag 4.8, Ecoli growth 0.676, rRNA inh HTS OD600 4.2 and rRNA inh HTS RFP -2.5.

Next section:
For COc1ccc(-n2ncc3c2CC(C)(C)CC3NC(=O)c2ocnc2C)cc1 (stereo not drawn) the results were ALR inh -1.0, rRNA inh HTS -13.6, UCH37 DUB inh 2.3, FGF22 binding inactive, HNF4A DNA FP -0.8, B2AR ag 1.4, Ecoli growth 0.716, rRNA inh HTS OD600 -9.7 and rRNA inh HTS RFP 1.0.
For O=C(NCc1ccccc1)NC1(C(=O)N2CCCC2)CCCCC1 the results were ALR inh -25.8, rRNA inh HTS 1.9, UCH37 DUB inh 3.8, HNF4A DNA FP -5.1, B2AR ag 5.6, Ecoli growth 0.744, rRNA inh HTS OD600 7.6 and rRNA inh HTS RFP -2.4.
For CCC(=O)OCC(=O)Nc1cc([N+](=O)[O-])ccc1Cl the results were ALR inh -3.1, rRNA inh HTS 9.4, UCH37 DUB inh -1.2, FGF22 binding inactive, HNF4A DNA FP 2.9, B2AR ag 11.3, Ecoli growth 0.685, rRNA inh HTS OD600 -7.3 and rRNA inh HTS RFP -4.6.
For Cn1cccc1-c1cc(C(=O)N/N=C/c2cc(Br)ccc2O)[nH]n1 the results were rRNA inh HTS -44.3, FGF22 binding inactive, HNF4A DNA FP 5.8, B2AR ag 5.8, rRNA inh HTS OD600 -68.0 and rRNA inh HTS RFP -9.4.
Screening Nc1nnc(CCc2ccccc2)s1 returned ALR inh -12.0, UCH37 DUB inh 2.1, HNF4A DNA FP -1.7, B2AR ag 3.0 and Ecoli growth 0.712.
Screening COc1ccc(NC(=O)COC(=O)C2COc3ccccc3O2)cc1OC (stereo not drawn) returned rRNA inh HTS 2.3, FGF22 binding inactive, HNF4A DNA FP 1.4, rRNA inh HTS OD600 9.9 and rRNA inh HTS RFP 3.3.
Cc1ccc(-c2noc(CCC(=O)NCc3ccco3)n2)cc1 was read as ALR inh -3.9, UCH37 DUB inh 4.9, HNF4A DNA FP 6.3, B2AR ag -2.3 and Ecoli growth 0.671.
`COc1ccccc1C(NC(=O)C1CCN(CCOc2ccc3ccccc3c2)CC1)c1ccccn1` (stereo not drawn) gave rRNA inh HTS -47.5, FGF22 binding inactive, HNF4A DNA FP -4.2, rRNA inh HTS OD600 -79.2 and rRNA inh HTS RFP -16.5.
For COc1ccccc1CNS(=O)(=O)c1ccc2c(c1)N(C(C)=O)CCO2 the results were ALR inh -0.1, rRNA inh HTS 1.9, UCH37 DUB inh 3.6, FGF22 binding inactive, HNF4A DNA FP 2.5, B2AR ag -1.4, Ecoli growth 0.65, rRNA inh HTS OD600 3.9 and rRNA inh HTS RFP 0.4.
`CCOC(=O)n1cc(C(=O)c2ccccc2O)cn1` gave ALR inh -1.8, rRNA inh HTS 12.1, UCH37 DUB inh -24.1, FGF22 binding inactive, HNF4A DNA FP 1.9, B2AR ag 0.6, Ecoli growth 0.621, rRNA inh HTS OD600 11.9 and rRNA inh HTS RFP 2.9.
`CC(=O)N1CCN(c2ccc(Nc3nc(C)nc4c3oc3ccccc34)cc2)CC1` gave ALR inh 96.2*, UCH37 DUB inh 3.3, HNF4A DNA FP 5.2, B2AR ag 1.6 and Ecoli growth 0.685.
CC(C)Nc1nc(NC(C)C)nc(N(C)n2cnnc2)n1 was read as ALR inh -3.3, UCH37 DUB inh -2.5, HNF4A DNA FP -1.4, B2AR ag 0.9 and Ecoli growth 0.764.
Screening COC(=O)C1(C(=O)OC)C(C(=O)c2ccccc2)C1c1ccccc1 (stereo not drawn) returned UCH37 DUB inh 0.5, FGF22 binding inactive, HNF4A DNA FP 1.9, B2AR ag 4.4 and Ecoli growth 0.643.
